High-throughput results deposited in PubChem BioAssay by National Center for Advancing Translational Sciences (NCATS).
RE007 growth inh = qHTS Assay for Inhibitors of the HIV-1 protein Vpr | S. pombe RE007 Vpr strain, BacTiter-Glo ATP luminescence, 24 h; control for the full effect not named in the record | Potency, µM (doses to about 92.2 µM), for inactives: top-dose activity change, negative = less growth | 0.21% of 360,000 active; active = well fitted falling curve with a large enough effect; inconclusive = small, poorly fitted or top-dose-only effect; inactive = no such curve, though single readings can be large or run the other way;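 further: on the % scale 0 is the no-effect control and ±100 the full control effect; nearly all actives have a fitted effect of over 50% in size; the assay follows cell death caused by Vpr and the record does not say whether a fall means rescue or toxicity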
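Fission yeast RE007 carrying one integrated HIV-1 vpr copy, seeded at OD 0.01 in PMG+AL medium with 23 nL pinned compound. Grown 24 h at 30 degrees; viability read by BacTiter-Glo luminescence after 5 min.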
LASV entry inh = qHTS for Inhibitors of binding or entry into cells for Lassa Virus; Lassa virus pseudotype entry inhibition, cell reporter; control for the full effect not named in the record; Potency, µM (highest dose often 37.9 µM), for the others: at the highest dose activity change, negative = inhibition, hits mostly inhibitors; 1.2% of 300,000 active; AID 540256, 2011; active means well fitted inhibition curve with a large enough effect; inconclusive means small, poorly fitted or top-dose-only effect, or effect the other way; inactive means flat fitted curve, though single readings scatter; tested in HEK293 cells; further: on the % scale 0 is the no-effect control and ±100 the full control effect; nearly all actives have a fitted effect of over 50% in size; luciferase read-out
Cruzain inh Det = qHTS Assay for Promiscuous and Specific Inhibitors of Cruzain (with detergent). Potency, µM, without a hit: max response, negative = inhibition, hits mostly inhibitors. AID 1478, 2009. purified cruzain, Z-FR-AMC fluorescence, 0.01% Triton. Cruzipain (Trypanosoma cruzi), P25779. 0.43% of 200,000 active; active means well fitted curve in the direction sought with a large enough effect; inconclusive means small, poorly fitted or top-dose-only effect, or another doubt; inactive means no such curve, though single readings can be large; an effect the other way counts as inactive or inconclusive;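 further: plate controls were neutral wells for no effect and buffer without enzyme for full effect; nearly all actives have a fitted effect of over 40% in size; top concentration of the series not given in the record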
Target sequence (P25779 123-467 limits assumed): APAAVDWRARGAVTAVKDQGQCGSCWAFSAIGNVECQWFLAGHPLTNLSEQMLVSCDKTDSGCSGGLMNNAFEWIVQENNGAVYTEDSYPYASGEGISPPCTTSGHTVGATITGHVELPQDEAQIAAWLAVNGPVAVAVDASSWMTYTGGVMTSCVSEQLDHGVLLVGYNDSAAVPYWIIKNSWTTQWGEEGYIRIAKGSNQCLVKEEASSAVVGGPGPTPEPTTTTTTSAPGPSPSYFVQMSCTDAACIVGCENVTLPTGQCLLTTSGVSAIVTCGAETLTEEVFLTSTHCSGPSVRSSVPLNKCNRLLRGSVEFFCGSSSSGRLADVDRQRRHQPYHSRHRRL
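Cysteine protease activity tested under reducing, mildly acidic conditions (100 mM sodium acetate pH 5.5, 5 mM DTT) plus 0.01% Triton X-100. Cruzain 1.5 nM; substrate Z-FR-AMC 2 uM; 15 min compound preincubation at room temperature.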
2A StopGo = High Throughput Screening for Foot and Mouth Disease Virus Antivirals. AID 1159524, 2015. human cells with a luciferase reporter of 2A StopGo recoding; control for the full effect not named in the record. 1.2% of 410,000 active. Potency, µM (titrated, usually from 57.9 µM), inactives show at the highest dose signal change, negative = less light; active = well fitted falling curve with a large enough effect; inconclusive = small, poorly fitted or top-dose-only effect; inactive = no such curve, though single readings can be large or run the other way; tested in HEK293T cells; further: on the % scale 0 is the no-effect control and ±100 the full control effect; nearly all actives have a fitted effect of over 45% in size; luciferase light after 4 h
Marburg entry inh = qHTS for inhibitors of binding or entry into cells for Marburg Virus. Marburg virus pseudotyped entry inhibition, cell reporter; control for the full effect not named in the record; about a third of the inactives were read at about 46 µM. Potency, µM (highest dose often 37.8 µM), inactives show top-dose activity change, negative = inhibition, usual class: inhibitors. 1.8% of 300,000 active. AID 540276, 2011; active = well fitted inhibition curve with a large enough effect; inconclusive = small, poorly fitted or top-dose-only effect, or effect the other way; inactive = flat fitted curve, though single readings scatter; tested in HEK293 cells; about a fifth of its hits are not listed in these tables; further: on the % scale 0 is the no-effect control and ±100 the full control effect; luciferase read-out
SARS PLpro yeast = qHTS of Yeast-based Assay for SARS-CoV PLP | Potency, µM (titrated, usually from 32.9 µM), without a hit: at the highest dose activity, positive = growth rescue | 0.19% of 330,000 active | AID 485353, 2010 | S. cerevisiae expressing SARS-CoV PLpro, growth rescue; control for the full effect not named in the record; further: 0% is about no effect; nearly all actives have a fitted effect of over 55% in size; growth read by luminescence after 48 h
NS1 function inh = qHTS Assay for Inhibitors of Influenza NS1 Protein Function; S. cerevisiae slowed by influenza A NS1, growth recovery by OD600; Potency, µM (doses to about 46.1 µM), inactives show at the highest dose activity, positive = more growth; 0.4% of 270,000 active; further: actives are rising curves; nearly all actives have a fitted effect of over 50% in size
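S. cerevisiae expressing influenza A NS1, grown in glucose, washed, then diluted 1:100 into pH 6.0 -URA galactose medium with 23 nl compound. Growth recovery read as OD600; NS1-free strain serves as control.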
Cruzain noTriton = qHTS Assay for Promiscuous and Specific Inhibitors of Cruzain (without detergent); purified cruzain, Z-FR-AMC fluorescence, no detergent; Potency, µM, for the others: max response, negative = inhibition, usual class: inhibitors; 2.3% of 200,000 active; active means well fitted curve in the direction sought with a large enough effect; inconclusive means small, poorly fitted or top-dose-only effect, or another doubt; inactive means no such curve, though single readings can be large; an effect the other way counts as inactive or inconclusive;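 further: plate controls were enzyme without inhibitor for no effect and buffer without enzyme for full effect; nearly all actives have a fitted effect of over 40% in size; top concentration of the series not given in the record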
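Purified cruzain at 1.5 nM, pre-incubated 15 min with compound at room temperature in 100 mM sodium acetate pH 5.5, 5 mM DTT, 0.00005% Triton X-100. Reaction started with 2 uM Z-FR-AMC; AMC fluorescence increase over 60 s gives rate.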
* = called active by the depositor; ? = inconclusive; · = no result given; & = joins results of further samples; [ ] = remark or other dose. Unless noted, the call rests on the fitted dose curve; in most records, active means well fitted rising curve with a large enough effect; inconclusive means small, poorly fitted or top-dose-only effect; inactive means no such curve, though single readings can be large or run the other way. Potency means the concentration at half of the fitted maximal effect.

SMILES	RE007 growth inh	LASV entry inh	Cruzain inh Det	2A StopGo	Marburg entry inh	SARS PLpro yeast	NS1 function inh	Cruzain noTriton
CC1(C)CC(=O)C(Sc2ccc(Br)cc2)=C(O)C1	27%	0%	·	-6%	-2%[46.1 µM]	1%	·	·
COc1ccc(-c2nnc(SCC(=O)NC(C)c3ccccc3)o2)cc1 (stereo unspecified)	18%	-9%	-0.1%	-12%	-15%	-8%	-17%	2%
CN(C)c1ccc(C(CNC(=O)c2ccccc2)c2c[nH]c3ccccc23)cc1 (stereo unspecified)	-10%	-17%	-10%	-15%	?	2%	13µM*	?
CCOc1ccccc1Cn1c(=O)oc2ccc(C)cc21	-21%	-7%	-5.6%	?	6%	-29%	-97%	-4%
O=C(CCl)Nc1nccs1	36%	·	·	?	·	10%	-1%	·
Cc1nc(CS(=O)(=O)c2ccccn2)sc1C(=O)NNC(=O)c1ccccc1	?	?	·	4%	?	-2%	2%	·
COc1ccc(C(=O)Nc2nnc(S(=O)(=O)N3CCN(c4ccc(C)cc4)CC3)s2)cc1	·	1%[46.1 µM]	-0.4%	3%	·	·	·	-2%
Cc1ccc(OCC(=O)N/N=C/c2cc([N+](=O)[O-])ccc2N2CCCCC2)cc1	23%	?	-4.0%	-17%	9%	4%	-3%	-14%
CCC(C)(C)NC(=O)C(C)OC(=O)c1nsc(Cl)c1Cl (stereo unspecified)	-2%	-1%	-2.0%	43%[activator]	?	-11%	-2%	0%
COc1cccc(NC(=O)Nc2cc(C(=O)O)ccc2C)c1	20%	27%[46.1 µM]	·	6%	0%[46.1 µM]	-1%	·	·
COc1cccc(/C=C(/C#N)c2ccc(F)cc2)c1OCc1cccc(C(=O)O)c1	·	11%	-12%	37%[activator]	1%	-3%	1%	?
CCc1nc2ccccc2c(C(=O)OCC(=O)Nc2ccc(S(=O)(=O)N3CCOCC3)cc2)c1C	3%	?	-6.4%	?	?	-3%	-4%	12%
CCOc1ccc(N(CC(=O)NC2CCCCCC2)S(=O)(=O)c2ccccc2)cc1	-14%	0%	·	-9%	-1%	-2%	-54%	·
CC(NC(=O)CCCc1ccccc1)c1ccncc1 (stereo unspecified)	1%	?	·	-8%	4%	-5%	1%	·
CC1CCC(C(=O)NC(C(=O)N2CCc3ccccc3C2)C(C)C)CC1 (stereo unspecified)	-3%	?	1.8%	15%	?	3%	11%	-2%
COC(=O)[C@@]1(Cc2ccc(OC)cc2)[C@H]2c3cc(C(=O)N(C)C)[nH]c3C[C@H]2CN1C(=O)c1ccccc1	-12%	-14%	-1.1%&-3.4%	0%	13%	17%	-24%	?
Cc1ccc(NC(=O)CSc2ncc(S(=O)(=O)c3ccccc3)c(=O)[nH]2)cc1C	6%	?	-7.0%	0%	39%	-6%	?	7%
O=C1CC(=O)CC(c2ccco2)C1	0%	15%	-0.3%	0%	4%	4%	17%	-1%
Cc1nnc(SCC(=O)NNC(=O)c2ccccc2)n1-c1ccccc1	7%	6%	3.7%	1%	?	15%	-4%	6%
COc1ccccc1NC(=O)CSc1ncc2c(n1)-c1cc(Cl)ccc1N(Cc1ccccc1)S2(=O)=O	·	-2%[46.1 µM]	-2.2%	13%	·	·	·	6.3µM*
Cc1ccc(S(=O)(=O)Nc2ccccc2C(=O)N2CCCCC2C)c(C)c1NS(C)(=O)=O (stereo unspecified)	1%	0%[46.1 µM]	·	-4%	5%[46.1 µM]	-12%	?	·
Cc1ccc(/C=N\NC(=O)CC(=O)NCCc2ccccc2)cc1	-11%	-12%[46.1 µM]	·	-15%	?	-6%	4%	·
C[C@@H](NS(=O)(=O)c1ccc(Br)cc1F)[C@@H](O)c1ccccc1	-3%	·	·	-16%	-6%	-20%	·	·
Cc1ccc(NC(=O)C2CC(=O)N(C(C)C)C2)cc1C (stereo unspecified)	15%	0%	·	7%	11%	-3%	29%	·
Cc1ccc(NC(=O)CN(C)C(=O)Cc2ccc3c(c2)CCC3)cc1	-1%	-19%	·	-20%	?	-9%	·	·
SMILES	RE007 growth inh	LASV entry inh	Cruzain inh Det	2A StopGo	Marburg entry inh	SARS PLpro yeast	NS1 function inh	Cruzain noTriton
CC1CCCC(C)N1C(=O)COC(=O)c1ccc(F)c(S(=O)(=O)N2CCOCC2)c1 (stereo unspecified)	-3%	-6%	·	-14%	21%	-1%	3%	·
CC(=O)OCc1c(F)c(F)c(-n2nc(C)cc2C)c(F)c1F	15%	7%	-0.5%	-18%	?	3%	-2%	-5%
Cc1c(Cc2c(Cl)cccc2Cl)c(=O)ccn1C(C)c1ccccc1 (stereo unspecified)	-1%	?	2.3%	-11%	?	4%	-6%	-7%
Cc1cc(C)c(S(=O)(=O)N2CCN(c3ccccc3)CC2)c(C)c1	-25%	·	·	-10%	·	-3%	-37%	·
CCOC(=O)Oc1ccc(C(=O)OCCCN(C)C)cc1OC	1%	0%	4.5%	-15%	-25%	7%	29%	-1%
CC(=O)c1ccc(OCC(=O)NCC(c2ccco2)N2CCCCC2)cc1 (stereo unspecified)	5%	16%	·	-9%	19%[46.1 µM]	-1%	·	·
Cc1ccc(C)c(N2CCN(CCCNC(=O)c3cnn(-c4ccccc4Cl)c3C3CCN(C(=O)OC(C)(C)C)CC3)CC2)c1	·	?	-2.9%	?	·	·	·	-1%
O=C(Nc1cc(Cl)ccc1F)c1ccc(-n2cncn2)c([N+](=O)[O-])c1	-2%	-10%	·	-23%	-1%[46.1 µM]	-7%	·	·
COc1ccc(C(=O)NCCCOc2cccnc2)cc1OC1CCN(C(C)=O)CC1	0%	·	·	1%	·	0%	0%	·
COCC(C)NC(=O)c1cc2c(ccc3ccccc32)oc1=O (stereo unspecified)	5%	·	·	29%	·	-8%	-3%	·
CSCC(=O)N1CCCC(CO)(CCCc2ccccc2)C1 (stereo unspecified)	-24%	-17%[46.1 µM]	·	-12%	1%[46.1 µM]	1%	5%	·
COc1cccc(/C=N\NC(C)=O)c1OC/C=C/c1ccccc1	-9%	-26%	·	-5%	-1%	-2%	-12%	·
Cc1cccc(C)c1NC(=O)CN(C)C(=O)CSCc1c(C)noc1C	-7%	-5%	·	-8%	-10%	2%	·	·
O=C1CCCC2=C1C(c1ccncc1)Nc1ccccc1N2 (stereo unspecified)	-2%	8%	-3.7%	0%	12%[46.1 µM]	-5%	-5%	-6%
CCc1ccc(C(=O)NNC(=O)CCN2CCN(Cc3ccccc3)CC2)cc1	2%	-18%	·	-6%	?	1%	-1%	·
O=C(Nc1ccccc1)N1CCC(C(=O)N2CCN(S(=O)(=O)c3cccc(F)c3)CC2)CC1	-6%	?	0.2%	17%	25%&25%	-3%	-14%	-5%
CCOc1ccccc1NS(=O)(=O)c1cccc2nsnc12	-13%	-2%	-2.9%	26%	-1%	-3%	3%	-3%
O=C(Nc1ccnc(-c2cccnc2)n1)c1ccccc1Cl	-8%	-3%	-1.5%	0%	-40%	-21%	-10%	-6%
Cc1ccc(C)c(NC(NC(=O)c2cccnc2)C(Cl)(Cl)Cl)c1 (stereo unspecified)	-4%	1%	0.8%	·	-5%	-1%	2%	?
Cc1ccc(Cn2nnc3c(=O)n(Cc4cccc(C)c4)cnc32)cc1	-10%	-19%	-2.8%	·	-15%	-4%	-12%	-8%
O=C(Nc1ccc2oc(-c3cccnc3)nc2c1)c1ccccc1F	·	26%[46.1 µM]	-7.2%	30%	?	·	·	2%
O=S1(=O)NC(=NCC(c2ccco2)N2CCCCC2)c2ccccc21 (stereo unspecified)	-1%	·	·	-6%	·	-1%	4%	·
O=C(NCc1ccccc1)Nc1cccn(Cc2ccccc2F)c1=O	2%	-9%	-1.1%	-12%	?	4%	-5%	-9%
CCOC(=O)N1CCN(c2c(N3CCN(c4ccc(F)cc4)CC3)c(=O)c2=O)CC1	-8%	?	·	-25%	2%[46.1 µM]	1%	-1%	·
CC(NC(=O)COc1ccccc1)C(=O)OCC(=O)c1cc2ccccc2o1 (stereo unspecified)	-1%	?	-15%	-6%	25%	-11%	-14%	-4%
Cc1cc(C)n2nc(SCc3nnc(-c4ccccc4Br)o3)nc2n1	50%	9%	·	-9%	?	0%	-3%	·
Cc1nc(N2CCN(C)CC2)c2c(C)c(C(=O)Nc3ccc(C)c(F)c3)sc2n1	-4%	0%	-3.2%	0%	?	-4%	2%	1%
COCCNC(=O)Cn1nc(C)c2c(C)n(-c3ccc(C)cc3)nc2c1=O	·	6%[46.1 µM]	2.7%	0%	·	·	·	5%

3 entries from above, with bars between the fields:
mol | RE007 growth inh | LASV entry inh | Cruzain inh Det | 2A StopGo | Marburg entry inh | SARS PLpro yeast | NS1 function inh | Cruzain noTriton
COc1cccc(/C=N\NC(C)=O)c1OC/C=C/c1ccccc1 | -9% | -26% | · | -5% | -1% | -2% | -12% | ·
O=C(Nc1cc(Cl)ccc1F)c1ccc(-n2cncn2)c([N+](=O)[O-])c1 | -2% | -10% | · | -23% | -1%[46.1 µM] | -7% | · | ·
Cc1ccc(C)c(NC(NC(=O)c2cccnc2)C(Cl)(Cl)Cl)c1 (stereo unspecified) | -4% | 1% | 0.8% | · | -5% | -1% | 2% | ?

Single records, as listed above. Screens in order: RE007 growth inh | LASV entry inh | Cruzain inh Det | 2A StopGo | Marburg entry inh | SARS PLpro yeast | NS1 function inh | Cruzain noTriton
Cc1cccc(C)c1NC(=O)CN(C)C(=O)CSCc1c(C)noc1C in the list: -7% | -5% | · | -8% | -10% | 2% | · | ·
O=C(Nc1ccnc(-c2cccnc2)n1)c1ccccc1Cl in the list: -8% | -3% | -1.5% | 0% | -40% | -21% | -10% | -6%
Cc1cc(C)c(S(=O)(=O)N2CCN(c3ccccc3)CC2)c(C)c1 in the list: -25% | · | · | -10% | · | -3% | -37% | ·
CC(=O)c1ccc(OCC(=O)NCC(c2ccco2)N2CCCCC2)cc1 (stereo unspecified) in the list: 5% | 16% | · | -9% | 19%[46.1 µM] | -1% | · | ·
